# TRPV1 potentiator: human TRPV1 potentiation. AID 540277. TRPV1-expressing cells, Fluo-8 calcium influx, capsaicin EC20 potentiation; host cell line not named in the record; control for the full effect not named in the record. Q8NER1. 320,000 compounds, 0.02% hits. potentiation, % at 8.33 µM; active means potentiation above 80%; inconclusive means 30% to 80%; inactive means below 30%; also: 0% is about no effect
# Target sequence (Q8NER1 whole entry, looked up): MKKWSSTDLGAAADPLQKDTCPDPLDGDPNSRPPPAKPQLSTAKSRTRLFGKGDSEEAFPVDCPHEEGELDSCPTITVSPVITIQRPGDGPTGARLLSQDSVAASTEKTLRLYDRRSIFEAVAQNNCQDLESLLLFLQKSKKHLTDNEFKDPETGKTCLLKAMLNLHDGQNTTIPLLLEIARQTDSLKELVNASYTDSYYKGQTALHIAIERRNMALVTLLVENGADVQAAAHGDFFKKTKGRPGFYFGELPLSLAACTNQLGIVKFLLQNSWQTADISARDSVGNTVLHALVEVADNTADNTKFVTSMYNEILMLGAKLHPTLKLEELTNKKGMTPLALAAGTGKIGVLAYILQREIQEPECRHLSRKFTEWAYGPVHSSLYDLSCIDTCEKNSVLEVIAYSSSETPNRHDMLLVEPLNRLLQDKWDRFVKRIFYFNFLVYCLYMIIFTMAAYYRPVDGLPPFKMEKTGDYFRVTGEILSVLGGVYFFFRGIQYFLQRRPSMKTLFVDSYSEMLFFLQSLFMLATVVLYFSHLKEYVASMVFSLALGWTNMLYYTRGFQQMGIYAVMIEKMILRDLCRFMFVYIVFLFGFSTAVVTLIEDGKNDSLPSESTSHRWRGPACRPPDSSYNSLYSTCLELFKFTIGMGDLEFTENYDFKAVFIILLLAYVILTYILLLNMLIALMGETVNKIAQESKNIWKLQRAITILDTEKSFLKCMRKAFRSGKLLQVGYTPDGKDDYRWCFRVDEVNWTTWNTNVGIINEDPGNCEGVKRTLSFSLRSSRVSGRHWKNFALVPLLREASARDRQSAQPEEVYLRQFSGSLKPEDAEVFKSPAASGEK
#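 Fluo-8 calcium influx in TRPV1-expressing cells, kinetic read (ex 480/em 520 nm). Compound added and read 3 min for agonist activity, followed by capsaicin at EC20 final and 2 min further read for enhancement.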
# gsp antag: antagonists of gsp mutant (McCune-Albright syndrome). gsp-mutant cells, cAMP HTRF, 30 min; control for the full effect not named in the record. Potency, µM (doses to about 76.9 µM), for the others: top-dose activity change, negative = inhibition, usual class: inhibitors. 340,000 compounds, 0.4% hits; active = falling curve of any shape with a large fitted effect; inconclusive = falling curve, mostly with a smaller effect; inactive = flat or rising curve; cell line not stated here;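 also: intracellular cAMP measured with PDE inhibitor Ro 20-1724 present during compound exposure; potency is read from the fitted curve at half-maximal effect; % is scaled to controls: 0 for no effect and ±100 for the full control effect; nearly all actives have a fitted effect of over 65% in size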
#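 HTRF cAMP measurement after 30 min RT detection following 30 min, 37C compound treatment alongside […] (added as 300 uM solution) in G418-selected cells seeded at 2000/well and grown 16–24 h.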
# Menin MLL FP FL: menin-MLL binding inhibition, fluorescein peptide. Fluorescence polarization, fluorescein-MLL peptide displacement from menin. FP activity change, % at 61.4 µM. 290,000 tested, under 10 active. AID 1766; inconclusive = falling polarisation curve, or a change in total fluorescence; inactive = total fluorescence flat and polarisation flat or rising; no compound was filed as active; the % refers to the polarisation; negative = inhibition;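 also: % of control where 0% means no effect; inhibitors lower the polarisation; unlabelled MLL peptide was the positive control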
# Sfp inh: blocks B. subtilis Sfp PPTase activity; Potency, µM, inactives show max response, negative = inhibition, most hits filed as inhibitors; Biochemical Sfp PPTase activity, qHTS; AID 1490; 310,000 compounds, 3.5% hits; active = well fitted inhibition curve with a large enough effect; inconclusive = small, poorly fitted or top-dose-only effect, or another doubt; inactive = no such curve, though single readings can be large or run the other way;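 also: the enzyme is Sfp with the accession as filed and its product quenches rhodamine fluorescence; potency is read from the fitted curve at half-maximal effect; 0% = enzyme reaction without inhibitor and -100% = no enzyme wells; top concentration of the series not given in the record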
#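 After 15 min at room temperature with compound, 15 nM Sfp received 5 uM rhodamine-CoA plus 12.5 uM BHQ-2-ybbR (50 mM Hepes pH 7.6, 10 mM MgCl2). Rate came from the fluorescence difference over 30 min, ex 525/em 598 nm.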
# D2 potentiator: positive allosteric modulators of human D2 dopamine receptor | potentiation, % (no concentration beside the values) | 360,000 compounds, 0.23% hits | DiscoveRx D2 beta-arrestin cells, luminescence, 90 min; 100% = 57 uM dopamine signal | AID 624464; active = potentiation of 50% or more; inconclusive = 30% to 50%; inactive = 30% or less;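 also: compound concentration not given in the record; tested on top of an EC20 dose of dopamine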
#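 D2 cells co-treated with compound plus 50 nM dopamine (EC20) for 90 min at 37 deg C to detect potentiation. Beta-arrestin recruitment was read as enzyme-fragment luminescence after 1 h at ambient temperature. Full response was set by 57 uM dopamine.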
# gsp agonist: agonists of gsp mutant (McCune-Albright syndrome). gsp mutant cells, cAMP HTRF, 30 min; control for the full effect not named in the record. Potency, µM (doses to about 76.9 µM), without a hit: at the highest dose activation (cAMP increase), hits mostly activators. 340,000 compounds, 0.13% hits. AID 624287; active = well fitted activation curve with a large enough effect; inconclusive = small, poorly fitted or top-dose-only effect, or another doubt; inactive = no such curve, though single readings can be large or run the other way; cell line not stated here;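 also: phosphodiesterase inhibitor Ro 20-1724 added with compounds to block cAMP breakdown; potency is read from the fitted curve at half-maximal effect; nearly all actives have a fitted effect of over 60% in size; about a fifth of the inactives were tested at one dose only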
#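 Cells in DMEM/10% FBS with G418 were pretreated with compounds in DMSO plus […] (300 uM stock) for 30 min at 37C. cAMP was measured by HTRF (cAMP-d2 plus anti-cAMP antibody-K) after 30 min at room temperature.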
# ClpP mod: qHTS Assay for Activators of ClpP; AID 651965, 2013; ATP-dependent Clp protease proteolytic subunit (Bacillus subtilis (strain 168)), P80244; purified B. subtilis ClpP, FRET peptide cleavage, 20 min; Potency, µM (highest dose often 57.5 µM), without a hit: at the top dose activity change, negative = active; 340,000 compounds, 1.9% hits; active = well fitted falling curve with a large enough effect; inconclusive = small, poorly fitted or top-dose-only effect; inactive = no such curve, though single readings can be large or run the other way; also: potency is read from the fitted curve at half-maximal effect; the source files actives as falling curves though it sought activators and does not explain the sign; nearly all actives have a fitted effect of over 65% in size; many hits overshoot -100%
# Target sequence (P80244 whole entry, looked up): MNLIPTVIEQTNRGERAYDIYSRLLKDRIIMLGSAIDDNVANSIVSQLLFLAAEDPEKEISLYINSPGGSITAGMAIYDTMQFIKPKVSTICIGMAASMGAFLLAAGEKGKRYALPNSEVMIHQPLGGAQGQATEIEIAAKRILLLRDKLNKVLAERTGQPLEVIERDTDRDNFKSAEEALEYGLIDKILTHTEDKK
#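 ClpP 10 microg/mL final, pH 8 Tris/KCl buffer with BSA, glycerol, Tween-20; compound pinned in; FRET-FV substrate; RT 20 min; Ex320/Em430; ΔFRET vs ADEP 5.8 microM, DMSO, no enzyme.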
# * marks the source's active call; other numbers are inactive results; i = inactive; ? = inconclusive; · = no result given; & = joins results of further samples; [ ] = remark or other dose.
# Screens in order – TRPV1 potentiator	gsp antag	Menin MLL FP FL	Sfp inh	D2 potentiator	gsp agonist	ClpP mod
O=C(CSc1nnnn1-c1cccc2ccccc12)N1CCOCC1
→ -11	-6%	-0.3	14%	-11	-4%	0.9%
NC(=O)CSC1=N/C(=C\c2ccco2)C(=O)N1c1ccc(OC(F)F)cc1
→ 10	-4%	15	-4%	-11	-2%	-2.6%
COC(=O)C1=C(C)NC2=C(C1c1ccc(O)cc1)S(=O)(=O)c1ccccc12 (stereo not given)
→ 2	5%	2.9	13%	-13	-5%	1.4%
COC(=O)C1=C(O)/C(=C\c2ccc(OCC(=O)Nc3ccccc3OC)cc2)N=C1C
→ -2	6%	-1.2	6%	-4	-1%	1.1%
Cc1cc(Nc2ccc(F)cc2)n2nc(C)nc2n1
→ 4	0%	2.8	5%	0	-5%	2.1%
CCOC(=O)C(CC)n1cnc2c(nnn2-c2cccc(OC)c2)c1=O (stereo not given)
→ 7	-2%	-3.2	11%	-3	14%[15.4 µM]	-1.0%
OCCC1CN(Cc2cnn(-c3ccc(F)cc3)c2)CCN1Cc1ccsc1 (stereo not given)
→ 12	11%	-2.0	11%	-17	-1%[15.4 µM]	·
O=C(CC12CCC(CC1)C2)NCc1ccc2c(c1)OCO2
→ 12	13%	2.8	29%	7	1%	1.3%
CC(=O)Nc1ccc(S(=O)(=O)Nc2ccc(S(=O)(=O)Nc3ncccn3)cc2)cc1
→ 3	-1%	1.5	-1%	-7	-16%[15.4 µM]	·
CN(CC(=O)Nc1ccc(Cl)c(Cl)c1)C1CCCCC1
→ -13	7%	-0.4	-21%	-1	-38%[inhibitor]	2.3%
COc1cccc(NC(=O)CSc2nnnn2C2CCCCC2)c1
→ -14	-9%	-1.3	9%	2	32%	·
CCC(O)C(C)(C)C (stereo not given)
→ -5	-4%	·	·	-5	·	-1.2%
COc1cc(CC(=O)N(c2ccccc2)c2nc(C)cs2)cc(OC)c1OC
→ -5	-5%	3.5	-4%	-8	-17%[15.4 µM]	·
COc1ccc(-n2ncc3c2CC(C)(C)CC3NC(=O)C2=CC(=O)CC(C)(C)O2)cc1 (stereo not given)
→ 5	-23%	·	1%	-1	-13%	-1.3%
COc1cccc(C(=O)Nc2ccc(S(=O)(=O)N3CCCCC3)cc2)c1OC
→ -3	-22%	·	4%	15	-22%[15.4 µM]	1.5%

# Screens in order – TRPV1 potentiator	gsp antag	Menin MLL FP FL	Sfp inh	D2 potentiator	gsp agonist	ClpP mod
CCN1C[C@@H]2[C@@H]3C(=O)N(Cc4ccccc4)C(=O)[C@@H]3[C@](CC)(C1=O)N2C(=O)c1ccc(F)cc1
→ ·	9%	·	·	-7	·	-3.6%
CC#CC(=O)NC1CCCN(C2Cc3ccccc3C2)C1 (stereo not given)
→ 1	4%	3.0	24%	-16	-33%[inhibitor]	-1.2%
CCn1cc(C(=O)N2CCN(Cc3ccc4c(c3)OCO4)CC2)c(=O)c2ccc(C)nc21
→ -2	0%	-0.3	11%	-15	4%	-5.6%
Cc1ccc(NC(=O)COC(=O)CN2CCSC2=O)cc1F
→ ·	·	·	·	-10	-20%	-0.3%
CCC1CCCCN1C(=O)CSc1nnc(-c2ccco2)o1 (stereo not given)
→ 12	-3%	4.7	-2%	-5	-11%	-1.7%
CCc1ccccc1NC(=S)NCC1CCN(c2ccc(OC)cc2)C1 (stereo not given)
→ -2	-13%	6.7	-11%	-15	-43%[inhibitor]	-1.0%
CCCN(CC(=O)Nc1ccccc1OC)C(=O)c1ccc(S(=O)(=O)Nc2ccccc2OC)cc1
→ ·	-21%	·	·	-2	-22%	-2.8%
CCc1ccc(NC(=S)Nc2ccc3[nH]c(=O)[nH]c3c2)cc1
→ -3	3%	-1.2	-21%	-3	7%[15.4 µM]	·
O=C(Cc1coc2cc3c(cc12)CCC3)NCC1(N2CCCCC2)CCCCC1
→ 4	?	1.0	4%	-17	-1%[15.4 µM]	·
COc1ccccc1C(=O)Oc1ccc2ccc(=O)oc2c1
→ 15	-1%	-6.2	21%	-4	9%	·
COc1ccc(C(=O)N[C@H](C(=O)NCC2CCCCC2)C(C)C)cc1
→ 16	14%	3.4	22%	-12	-9%	-1.6%
Clc1ccc(C=NN2CCCCCC2)cc1
→ ·	5%	·	·	-1	0%[15.4 µM]	0.5%
CC1(c2ccccc2)NC(=O)N(Cc2ccc([N+](=O)[O-])cc2)C1=O (stereo not given)
→ 9	7%	5.3	20%	0	-2%[15.4 µM]	-1.8%
COc1ccc(OC)c(NC(=O)C2CCCN2C(=O)NC2CCCCC2)c1 (stereo not given)
→ 7	-1%	-2.5	9%	-2	-30%	·
O=C(CN1C(=O)NC2(CCCC2)C1=O)Oc1ccc2ccc(=O)oc2c1
→ -10	6%	·	·	-6	?	4.4%

# The last 3 records of the part before open the next one.
# Screens in order – TRPV1 potentiator	gsp antag	Menin MLL FP FL	Sfp inh	D2 potentiator	gsp agonist	ClpP mod
CC1(c2ccccc2)NC(=O)N(Cc2ccc([N+](=O)[O-])cc2)C1=O (stereo not given)
→ 9	7%	5.3	20%	0	-2%[15.4 µM]	-1.8%
COc1ccc(OC)c(NC(=O)C2CCCN2C(=O)NC2CCCCC2)c1 (stereo not given)
→ 7	-1%	-2.5	9%	-2	-30%	·
O=C(CN1C(=O)NC2(CCCC2)C1=O)Oc1ccc2ccc(=O)oc2c1
→ -10	6%	·	·	-6	?	4.4%
CN(C)c1ccc(NC(=O)Nc2cccc(Cl)c2)cc1
→ 6	-8%	8.0	-9%	-9	-31%[inhibitor]	0.8%
CCOC(=O)c1cnn2cc(-c3[nH]ncc3[N+](=O)[O-])cnc12
→ 7	3%	5.7	0%	7	1%	4.3%
Cc1cc2c(c(=O)o1)C1O[C@](c3ccsc3)(Cc3cc(C#N)ccc31)O2
→ i	·	8.4[11.7 µM]	-3%	·	·	·
Oc1[nH]c2ccccc2c1N=Nc1ccc(F)cc1
→ 1	-1%	?	-1%	-22	-34%	-28%
N#Cc1ccc(Nc2nc(-c3ccc(O)cc3O)cs2)cc1C(F)(F)F
→ 7	-30%	·	·	-18	·	-4.0%
COc1nccnc1NS(=O)(=O)c1ccc(N=Cc2c(C)[nH]n(-c3ccccc3)c2=O)cc1
→ 4	?	-1.2	10%	-10	-62%[inhibitor]	-1.7%
CC(C)(C)NC(=O)c1ccc2c(c1)C(=O)N(C1CCCCC1)C2=O
→ -2	-25%	0.3	2%	5	-17%	-2.2%
NC(=O)CC(c1ccccc1)c1ccc2c(c1)OCO2 (stereo not given)
→ 3	3%	-2.9	1%	4	-5%[15.4 µM]	-6.4%
CCc1nnc(NC(=O)c2ccc(S(=O)(=O)N3CCOCC3)cc2)s1
→ 4	-12%	0.3	14%	-5	-22%	1.2%
COc1ccc(C(=O)O)nc1C
→ 7	1%	6.5	45µM*	-7	-51%	-0.9%
Cc1ccccc1S(=O)(=O)N1[C@@H](c2ccccc2)C(C(=O)O)=CC[C@H]1c1ccc(Cl)cc1
→ ?	-6%	·	·	-12	-3%	0.7%
Cc1ccccc1NC(=O)c1ccccc1NC(=O)c1cccs1
→ 0	-11%	-3.6	2%	-3	-12%	·
CCCNC(=O)NS(=O)(=O)c1cnccc1Sc1ccc(Cl)c(Cl)c1
→ 18	-10%	1.1	?	-9	-5%	22µM*
COc1ccccc1C(=O)Nc1nc(-c2ccc3c(c2)OCCO3)cs1
→ 10	-26%	-7.9	-1%	11	?	25µM*
O=C(/C=C/c1ccco1)N1CCN(S(=O)(=O)/C=C/c2ccccc2)CC1
→ 3	-13%	?	18µM*	-1	-2%[15.4 µM]	0.5%

# Screens in order – TRPV1 potentiator	gsp antag	Menin MLL FP FL	Sfp inh	D2 potentiator	gsp agonist	ClpP mod
Cc1ccc(/C=N/N2CCN(C3c4ccccc4-c4ccccc43)CC2)o1
→ 11	-11%	6.3	18µM*	-7	-24%	-0.8%
COc1cc(C(=O)NC2CCCc3ccccc32)cc(OC)c1C (stereo not given)
→ -36	3%	-1.3	-8%	-4	-8%	·
CCOC(=O)c1c(N)n[nH]c1-c1ccccc1
→ 2	-2%	4.0	5%	-8	-37%[inhibitor]	-3.2%
S=C(NCCN(C1CCCCC1)C1CCCC1)Nc1cccc(Cl)c1
→ -11	2%	6.4	5%	-17	22%[15.4 µM]	-3.3%
COc1cc2c(cc1OC)C(C)N(C(=O)c1cc(Cl)nc(Cl)c1)CC2 (stereo not given)
→ 6	-9%	-2.5	18%	-3	?	-3.9%
COc1cc(C(=S)N2CCCC2)ccc1OCc1ccccc1
→ -9	-2%	5.8	-2%	-3	-20%	·
CC(=O)N1c2ccc(S(=O)(=O)NCc3ccccc3Cl)cc2CC1C (stereo not given)
→ 0	-11%	-2.7	11%	1	-13%	1.4%&0.6%
CCOC(=O)C(C)(C)Sc1nc2c(cnn2-c2ccc(C)cc2)c(=O)[nH]1
→ -3	-3%	2.3	13%	1	-1%	-0.4%
Cc1cc(NC(=O)CSc2nc(-c3ccccc3)c(C#N)c(=O)[nH]2)no1
→ 15	10%	3.6	31%[activator]	-18	?	-1.5%
O=C1CS/C(=C/C(=O)c2ccccc2)N1
→ 3	-12%	9.9	-2%	-8	14%	-2.3%
Cc1[nH]c(C)c2c(=O)n(-c3ccccc3)ncc12
→ 6	-5%	-0.8	4%	-2	26%	-5.3%
C=CCN(CC=C)CCOc1ccc2ccccc2c1
→ 25	4%	-0.2	-6%	-19	-7%	·
C=CCOC(=O)C1=C(C)Nc2[nH]c(=O)[nH]c(=O)c2C1c1ccccc1 (stereo not given)
→ 28	7%	-1.0	6%	-1	-11%	-7.3%
O=[N+]([O-])/C(C(Cl)=C(Cl)Cl)=C(/Sc1ccccc1)N1CCCCC1
→ 2	-33%	0.0	-4%	-8	18%[15.4 µM]	-0.1%
Cc1nccn1CCC(=O)O
→ 5	9%	1.7	18%	-8	-35%[inhibitor]	-0.8%
O=[N+]([O-])c1ccc(C=NN2CCNC2=S)o1
→ ·	·	·	·	-2	-22%	2.3%
Cc1ccc2nc3c(cc2c1)c(NS(=O)(=O)c1ccccc1)nn3CC(C)C
→ -24	-13%	3.8	2%	-3	-3%	44%

# High-throughput results deposited in PubChem by National Center for Advancing Translational Sciences (NCATS).
